# PINK1 expr mod: PINK1 expression modulation | 410,000 compounds, 0.2% hits | Potency, µM (highest dose often 76.6 µM), for the others: at the top dose activation (PINK1 increase), actives largely listed as activators | PINK1 immunofluorescence, high-content cytometry, 24 h; active = well fitted activation curve with a large enough effect; inconclusive = small, poorly fitted or top-dose-only effect; inactive = flat fitted curve, though single readings scatter; cell line not stated here;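 note: potency is the fitted concentration of half-maximal effect; % of control where 0% means no effect; nearly all actives have a fitted effect of over 65% in size; a mitochondrial uncoupler was the plate control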
#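 Compound titrations (5 concentrations, 24 h) on a stable cell line; DMSO and CCCP controls. Endpoint: fixed-cell PINK1 immunofluorescence with mitochondrial, cell and nuclear markers, scanned by microplate cytometer.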
# Sfp PPTase inh: inhibitors of Bacillus subtilis Sfp phosphopantetheinyl transferase | Q9F4F7 | Biochemical Sfp PPTase activity, qHTS | Potency, µM, inactives show max response, negative = inhibition, hits mostly inhibitors | 310,000 compounds, 3.5% hits | AID 1490; active = well fitted inhibition curve with a large enough effect; inconclusive = small, poorly fitted or top-dose-only effect, or another doubt; inactive = no such curve, though single readings can be large or run the other way;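 note: the enzyme is Sfp with the accession as filed and its product quenches rhodamine fluorescence; potency is the fitted concentration of half-maximal effect; 0% = enzyme reaction without inhibitor and -100% = no enzyme wells; top concentration of the series not given in the record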
#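 Fluorescence-quenching assay: 15 nM Sfp-PPTase preincubated 15 min at room temperature with compound, then 5 uM rhodamine-CoA and 12.5 uM BHQ-2-labelled YbbR peptide added. Fluorescence (ex 525/em 598 nm) read at start and after 30 min; difference gives rate.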
# ClpP mod: qHTS Assay for Activators of ClpP | ATP-dependent Clp protease proteolytic subunit (Bacillus subtilis (strain 168)), P80244 | purified B. subtilis ClpP, FRET peptide cleavage, 20 min | Potency, µM (top dose mostly 57.5 µM), for the others: at the highest dose activity change, negative = active | 340,000 compounds, 1.9% hits | AID 651965, 2013; active = well fitted falling curve with a large enough effect; inconclusive = small, poorly fitted or top-dose-only effect; inactive = no such curve, though single readings can be large or run the other way; note: potency is the fitted concentration of half-maximal effect; the source files actives as falling curves though it sought activators and does not explain the sign; nearly all actives have a fitted effect of over 65% in size; many hits overshoot -100%
# Target sequence (P80244 whole entry, looked up): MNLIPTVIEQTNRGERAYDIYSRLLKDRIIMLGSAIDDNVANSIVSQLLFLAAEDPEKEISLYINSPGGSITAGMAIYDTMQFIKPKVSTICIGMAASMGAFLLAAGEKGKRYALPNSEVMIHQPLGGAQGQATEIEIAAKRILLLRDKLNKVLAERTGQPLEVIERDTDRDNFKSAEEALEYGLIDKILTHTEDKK
#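 ClpP 10 microg/mL final, pH 8 Tris/KCl buffer with BSA, glycerol, Tween-20; compound pinned in; FRET-FV substrate; RT 20 min; Ex320/Em430; ΔFRET vs ADEP 5.8 microM, DMSO, no enzyme.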
# gsp antag: antagonists of gsp mutant (McCune-Albright syndrome); gsp-mutant cells, cAMP HTRF, 30 min; control for the full effect not named in the record; Potency, µM (highest dose often 76.9 µM), inactives show top-dose activity change, negative = inhibition, hits mostly inhibitors; 340,000 compounds, 0.4% hits; AID 624288; active = falling curve of any shape with a large fitted effect; inconclusive = falling curve, mostly with a smaller effect; inactive = flat or rising curve; cell line not stated here;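 note: intracellular cAMP measured with PDE inhibitor Ro 20-1724 present during compound exposure; potency is the fitted concentration of half-maximal effect; % is set by controls: 0 for no effect and ±100 for the full control effect; nearly all actives have a fitted effect of over 65% in size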
#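 HTRF cAMP measurement after 30 min RT detection following 30 min, 37C compound treatment alongside […] (added as 300 uM solution) in G418-selected cells seeded at 2000/well and grown 16–24 h.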
# D2 ag: human D2 receptor agonism in beta-arrestin assay; AID 624465; DiscoveRx PathHunter D2 beta-arrestin, luminescence, 90 min; 100% = 57 uM dopamine signal; 360,000 compounds, 0.084% hits; P14416; activation, % (concentration not given with the values); in the data active = activation above about 40%; inconclusive = about 15% to 40%; inactive = below about 15%; note: the text of the record calls up to 30% inactive
# Target sequence (P14416 whole entry, looked up): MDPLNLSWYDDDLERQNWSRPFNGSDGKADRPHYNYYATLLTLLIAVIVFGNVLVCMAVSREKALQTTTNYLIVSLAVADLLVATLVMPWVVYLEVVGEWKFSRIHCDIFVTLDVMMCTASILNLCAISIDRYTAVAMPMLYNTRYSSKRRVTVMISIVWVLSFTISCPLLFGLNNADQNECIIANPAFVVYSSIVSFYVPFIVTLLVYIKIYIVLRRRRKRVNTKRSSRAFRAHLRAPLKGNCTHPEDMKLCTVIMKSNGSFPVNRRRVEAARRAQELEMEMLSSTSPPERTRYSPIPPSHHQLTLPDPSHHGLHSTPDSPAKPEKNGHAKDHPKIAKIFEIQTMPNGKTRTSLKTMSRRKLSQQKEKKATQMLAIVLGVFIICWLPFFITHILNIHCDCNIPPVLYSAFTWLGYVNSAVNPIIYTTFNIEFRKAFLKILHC
#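 DiscoveRx PathHunter D2 beta-arrestin cells (2,100/well) attached overnight, then compound-stimulated 90 min at 37 C in HBSS/10 mM HEPES/0.1% Tween-20 buffer; beta-galactosidase complementation read by luminescence after 1 h at ambient temperature. Dopamine 57 uM final (EC100) as control.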
# gsp ag: activates gsp, the McCune-Albright syndrome mutation. 340,000 compounds, 0.13% hits. Potency, µM (titrated, usually from 76.9 µM), for inactives: at the top dose activation (cAMP increase), usual class: activators. gsp mutant cells, cAMP HTRF, 30 min; control for the full effect not named in the record; active = well fitted activation curve with a large enough effect; inconclusive = small, poorly fitted or top-dose-only effect, or another doubt; inactive = no such curve, though single readings can be large or run the other way; cell line not stated here;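 note: phosphodiesterase inhibitor Ro 20-1724 added with compounds to block cAMP breakdown; potency is the fitted concentration of half-maximal effect; nearly all actives have a fitted effect of over 60% in size; about a fifth of the inactives were tested at one dose only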
#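 Cells in DMEM/10% FBS with G418 were pretreated with compounds in DMSO plus […] (300 uM stock) for 30 min at 37C. cAMP was measured by HTRF (cAMP-d2 plus anti-cAMP antibody-K) after 30 min at room temperature.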
# Menin-MLL FL inh: inhibitors of human menin-MLL interaction, wild-type MLL peptide; Fluorescence polarization, fluorescein-MLL peptide displacement from menin; FP activity change, % at 61.4 µM; 290,000 tested, under 10 active; inconclusive = falling polarisation curve, or a change in total fluorescence; inactive = total fluorescence flat and polarisation flat or rising; no compound was filed as active; the % refers to the polarisation; negative = inhibition;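 note: % of control where 0% means no effect; inhibitors lower the polarisation; unlabelled MLL peptide was the positive control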
# The depositor's hits bear a star; ? = inconclusive; / = no result given; & = joins results of further samples; [ ] = remark or other dose.
SMILES,PINK1 expr mod,Sfp PPTase inh,ClpP mod,gsp antag,D2 ag,gsp ag,Menin-MLL FL inh
Cc1c(N(C(=O)Nc2ccccc2)C2=NCC(C)S2)c(=O)n(-c2ccccc2)n1C (stereo unspecified),1.4%,6%,-0.6%,-1%,-1.9,-11%,0.6
C#Cc1ccc([C@@H]2C=C(C(=O)O)O[C@H](OCCCCO)C2)cc1,-0.2%,8%,-1.1%,0%,-1.5,/,-1.5
COc1ccccc1NC(=O)CCN1C(=O)C2C3CCC(C3)C2C1=O (stereo unspecified),-3.0%,17%,0.6%,10%,1.3,-47%[inhibitor],/
Cc1ccc(CNC(=O)c2ccccc2N)cc1,1.5%[38.3 µM],10%,28µM*,-6%,2.9,19%,6.1
CCCCN1CC(=O)N2[C@H]3c4cc(Cl)ccc4OC[C@@H]3[C@H](c3ccccc3)[C@]2(C)C1=O,6.4%,/,0.8%,-12%,-0.1,22%,/
COc1ccc(S(=O)(=O)Nc2ccccc2C(=O)N2CCCC2)cc1C,0.6%,10%,/,10%,-1.9,8%[15.4 µM],-1.5
CCN(Cc1ccccc1)C(=O)COC(=O)c1cc(Cl)nc(Cl)c1,0.1%,6%,-3.3%,7%,-3.5,-3%[15.4 µM],-3.2
CCCOc1ccc(-c2cn3ccccc3n2)cc1,0.6%,1%,4.8%,-9%,2.2,-1%,-1.0
CC(C)NC(=O)C1CCN(C2CCN(Cc3ccc4cccc(F)c4n3)CC2)CC1,0.4%,6%,0.8%,10%,-1.7,-39%[inhibitor],4.2
Cc1sc2nc(SCCO)n(-c3ccccc3)c(=O)c2c1C,2.6%,28%,-0.5%,2%,-3.0,12%,2.4
CC(Sc1nnc2ccccn12)C(N)=O (stereo unspecified),1.5%,11%,-14%,8%,1.1,-22%,-0.3
O=C(O)/C=C/c1cccnc1,0.9%,7%,1.7%,10%,-10,?,1.0
O=C(COc1ccc(Br)cc1)NCCO,-1.2%,4%,-0.6%,8%,-1.7,?,4.7
Cc1ccc(C(OCC(O)CNC(CO)C(O)c2ccc([N+](=O)[O-])cc2)c2ccccc2)cc1 (stereo unspecified),-1.6%,-22%,/,3%,3.2,-6%,-16
Cc1cc(C)nc(SCC(=O)N/N=C\C(Br)=C\c2ccccc2)n1,0.7%,-7%,/,?,-3.3,-9%[15.4 µM],3.7
CCOC(=O)C1=C(N)c2ccccc2CC1C1CCCC1 (stereo unspecified),6.8%,0%,-3.8%,-13%,-3.6,13%,2.7
C/C=C/C1=CC(=O)C[C@H](c2ccc(Cl)cc2)C1,6.2%,/,-1.1%,8%,1.1,?,/
O=C(CSc1nnc(C2COc3ccccc3O2)o1)N1CCOCC1 (stereo unspecified),-2.0%,6%,1.3%,12%,-0.5,-2%,2.0
NS(=O)(=O)c1ccc(NC(=S)NCc2ccccc2)cc1,-0.6%,56µM*,0.6%,9%,-0.1,2%,-4.1
Cc1ccccc1CN(c1ccc(C(=O)N/N=C/c2ccc(OCC(N)=O)cc2)cc1)S(C)(=O)=O,-1.2%,23%,127%,6%,1.1,-23%,2.8
Cc1cc(C)c(-c2csc(NC(=O)C3=NN(c4ccccc4)C(=O)CC3)n2)c(C)c1,2.5%,-7%,-0.8%,-7%,0.7,17%,6.5
COCCCn1nnnc1SCC(=O)Nc1nc(C)c(C)s1,-1.1%,7%,0.5%,-4%,-1.0,0%,-0.5
Cc1ccc(S(=O)(=O)NC(=O)NCc2ccco2)cc1,2.8%,/,/,4%,-5.3,?,/
Cc1cc(C)cc(NC2=CC(=O)CC(c3ccco3)C2)c1 (stereo unspecified),6.6%,13%,-2.2%,-16%,-3.2,5%,2.3
CCc1ccccc1NC(=O)CNC(=O)c1ccc(S(=O)(=O)NCc2ccco2)cc1,1.4%,/,0.8%,/,1.3,-39%[inhibitor],/
COc1cc(/C=C2/C(=O)NN(c3ccc(F)cc3)C2=O)cc(Cl)c1O,2.4%,45µM*,/,-21%,-0.7,1%,?
COc1ccc(CNC(=O)Cc2c(C(=O)O)[nH]c3ccccc23)cc1,/,2%,-17%,3%,0.5,-46%[inhibitor],-2.4
COc1ccc(-c2nc(CS(=O)CC(=O)NCc3ccc4c(c3)OCO4)c(C)o2)cc1OC (stereo unspecified),-2.2%,3%,3.5%,-1%,-1.4,2%,-0.6
Cn1c(SCC(=O)N(C2CCCCC2)C2CCCCC2)nnc1-c1cccs1,2.4%[38.3 µM],10%,-3.2%,?,0.2,-24%,3.2
O=C(CSCc1ccccc1)Nc1ccc2c(c1)OCO2,-0.3%,-6%,-4.2%,-11%,-3.0,-13%,3.4
Cn1c(Cn2c(C(F)(F)F)nc3ccccc32)nc2ccccc21,10%,11%,-4.2%,4%,-5.7,11%,-0.6
CNC(=S)Nc1ccc(OC)c(OC)c1,-2.2%,8%,1.8%,15%,2.2,26%,2.8
O=C(O)CCC(=O)OCCc1cc2ccccc2c(=O)o1,-1.1%,/,-17%,8%,-5.4,24%,/
CCN(CC)CCNC(=O)c1cc(Nc2ccc(OC)c(OC)c2)nc2ccccc12,-0.2%,-9%,0.6%,-28%,0.2,-17%,-12
Cn1c(NCc2cccnc2)nc2cc(-c3ccc(C(=O)N4CCOCC4)cc3)sc2c1=O,1.8%,/,5.0%,/,-14,/,/
COc1ccc(NC(=O)[C@H](C)NC(=O)C2CCN(S(=O)(=O)c3ccc(C)cc3)CC2)cc1OC,-0.6%,6%,-4.1%,9%,2.6,12%,5.3
CCOC(=O)COc1nc(N(C)C)nc(N(C)C)n1,-0.7%,7%,-3.3%,11%[15.4 µM],-0.6,-5%,5.0
Cc1cc(C)c(NC2=CC(=O)CC(C)(C)C2)c(C#N)c1,4.5%[38.3 µM],-7%,0.0%,7%,-1.2,12%,-4.2
COc1ccc(NC(=O)CNC(=O)c2cccs2)cc1Cl,0.9%,9%,1.4%,3%,-2.5,9%,-0.8
CC(C)(C)CNC(=O)c1cccc2c1C(=O)c1ccc(N3CCCC3)cc1S2(=O)=O,4.4%,/,-1.8%,?,-0.3,0%,/

# Some of the entries so far, with two lines to a compound.
# Second line of a record – PINK1 expr mod	Sfp PPTase inh	ClpP mod	gsp antag	D2 ag	gsp ag	Menin-MLL FL inh
> CCN(CC)CCNC(=O)c1cc(Nc2ccc(OC)c(OC)c2)nc2ccccc12
→ -0.2%	-9%	0.6%	-28%	0.2	-17%	-12
> Cn1c(NCc2cccnc2)nc2cc(-c3ccc(C(=O)N4CCOCC4)cc3)sc2c1=O
→ 1.8%	/	5.0%	/	-14	/	/

# (more compounds)
SMILES,PINK1 expr mod,Sfp PPTase inh,ClpP mod,gsp antag,D2 ag,gsp ag,Menin-MLL FL inh
CCCSc1nc(=O)n2cc(C)ccc2n1,4.8%[38.3 µM],-5%,13%,6%,-1.4,41%,2.1
NC(=O)c1ccc(SCC(=O)NC2CCCCC2)c([N+](=O)[O-])c1,-0.6%,19%,/,5%,-0.3,?,-0.7
CCC(C)NC(C(=O)Nc1ccc(Cl)c([N+](=O)[O-])c1)c1ccccc1 (stereo unspecified),0.4%,-16%,-5.7%,-16%,-5.1,8%[15.4 µM],2.9
Cc1c(CCNC=O)cc(C)c2c3c(oc12)CCCC3,1.7%,/,-4.6%,7%,-2.1,-23%,/
COc1ccc(OCc2nnc(SCC(=O)Nc3cccc(C(C)=O)c3)o2)cc1,0.4%,/,2.5%,-7%,-2.7,-22%,/
Cc1cc(C)nc(/N=C(\N)Nc2ccc(F)c([N+](=O)[O-])c2)n1,4.2%,17%,-1.8%,10%,0.7,-25%,0.5
COc1cccc(OC)c1NC(=O)CN(C)S(=O)(=O)c1ccc2c(c1)OCCO2,-1.5%,0%,/,5%,3.2,-78%[inhibitor],-1.2
Cc1ncc(CN2CCN(C3CCCC3)C(CCO)C2)s1 (stereo unspecified),1.1%,1%,-2.5%,22%,-1.8,-10%,3.1
Cc1cccc(C)c1NC(=O)CN(C)C(=O)c1cccc(NS(=O)(=O)c2ccccc2)c1,0.3%,/,/,-5%,-3.7,-24%[15.4 µM],/
CCCn1c2ccccc2c2nnc(SCCN3CCOCC3)nc21,0.8%,-11%,/,6%,6.7,?,2.7

# Individual results from the entries so far.
# COc1ccc(OCc2nnc(SCC(=O)Nc3cccc(C(C)=O)c3)o2)cc1 | gsp ag: -22%
# CCC(C)NC(C(=O)Nc1ccc(Cl)c([N+](=O)[O-])c1)c1ccccc1 (stereo unspecified) | Sfp PPTase inh: -16%
# CCCSc1nc(=O)n2cc(C)ccc2n1 | PINK1 expr mod: 4.8%[38.3 µM]
# Cc1c(CCNC=O)cc(C)c2c3c(oc12)CCCC3 | ClpP mod: -4.6%
# CCCn1c2ccccc2c2nnc(SCCN3CCOCC3)nc21 | PINK1 expr mod: 0.8%

# New compounds follow.
SMILES,PINK1 expr mod,Sfp PPTase inh,ClpP mod,gsp antag,D2 ag,gsp ag,Menin-MLL FL inh
CC(C)CNC(=O)C(=O)NCC1OCCCN1S(=O)(=O)c1cccs1 (stereo unspecified),-0.7%,12%,-1.8%,1%,-3.0,5%,-5.2
CCOC(=O)c1c(C)n(-c2ccccc2)c2ccc(O)c(CN(C)C)c12,1.4%,-14%,/,17%,0.4,-6%[15.4 µM],-3.8
COc1ccc(-c2oc3cc(OC)c(O)c(OC)c3c(=O)c2OC)cc1O,1.3%,0%,1.5%,-15%,-0.9,/,12
N#CC(C#N)=C1C=C2C=C(N3CCCCC3)CCC2CC1 (stereo unspecified),?,-10%,1.9%,40µM*,?,37%,/
CC(C)c1cc(C(=O)N/N=C/C=C/c2ccccc2)n[nH]1,-2.0%,-7%,0.3%,-1%,-3.3,18%,-2.2
CCOCC(=O)Nc1nc2ccc(C)cc2s1,2.9%,8%,-1.2%,4%,-2.8,-21%,2.6
C=CCn1c(NC(=O)c2ccccc2Cl)c(C#N)c2nc3ccccc3nc21,20%,79µM*,?,-22%,-1.7,-16%,?
O=C1c2ccccc2C(=O)C1c1ccc(Cl)cc1,-1.1%,17%&10%,1.5%,12%,-3.1,2%,-4.4
Cc1ccc(C)c(NC(=O)/C(C#N)=C/c2ccc[nH]2)c1,3.0%,18%,-0.5%,5%,-3.1,-7%,/
